# LT uptake inh – inhibitors of anthrax lethal toxin internalization; Potency, µM (series often up to 40 µM), without a hit: top-dose activity change, negative = inhibition, most hits filed as inhibitors; 70,000 compounds, 0.67% hits; Cells, anthrax lethal toxin internalization, FRET ratio (460/530); active = well fitted falling ratio curve with the 530 nm signal flat; inconclusive = other ratio curves, or a change in one channel alone; inactive = flat curves in the ratio and both channels; the % refers to the ratio; further: on the % scale 0 is the no-effect control and ±100 the full control effect; nearly all actives have a fitted effect of over 50% in size; tested in ME-180 cells; beta-lactamase reporter
# SmPrx2 inh – blocks S. mansoni peroxiredoxin 2 enzymatic activity; S. mansoni Prx2 activity coupled to TGR/GSH (TGR is thioredoxin glutathione reductase), NADPH fluorescence loss, qHTS; some inactives read as strong as hits; Potency, µM; 65,000 compounds, 0.07% hits; AID 448; active means full or partial inhibition curve with a strong effect at the top dose; inconclusive means weaker partial or single-point curve; inactive means no accepted curve; further: series up to 57 µM; many of its hits are not listed in these tables
#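 Enzyme mix: 100 uM NADPH, 25 nM TGR, 700 uM GSH, 50 nM Prx2 in 100 mM phosphate pH 7.4, 10 mM EDTA, 0.01% Tween-20. 15 min RT with compound; NADPH/GSH added, H2O2 starts reaction; NADPH fluorescence read 8 min.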
# * hit, by the source's call; u = inconclusive; x = no result given; & = joins results of further samples; [ ] = remark or other dose. Potency means the concentration at half of the fitted maximal effect. Some of the compounds tested, so the mix of outcomes need not match the whole.
SMILES,LT uptake inh,SmPrx2 inh
C=CCn1c(CC(=O)Nc2cccc(OC)c2)nnc1SCC(=O)NC1CCCCC1,u,>57
CCN1C(=O)/C(=C\N2CCN(c3cccc(Cl)c3)CC2)SC1=S,-8%,>57
CC(C)Br,-3%,x
O=C(Nc1nncs1)C1(c2ccccc2)CCCC1,0%,>57
O=C(Nc1ccccc1Oc1ccccc1)c1ccc(Br)o1,-16%,x
Cc1cc(N2C(=O)CC(N3CCN(c4ccc(C(=O)c5cccs5)cc4)CC3)C2=O)no1 (centres undefined),-9%,>57
Cc1nn(-c2ccccc2)c2[nH]c(=O)c(CNCC3CCCO3)cc12 (centres undefined),1%,>57
O=C(O)c1cc(-c2ccco2)nc2ccc(Br)cc12,u,>57
COc1ccc(OC)c(C(=O)c2oc3ccccc3c2NC(C)=O)c1,-15%,>57
Clc1ccc(-n2nnnc2-c2ccccc2)cc1,3%,>57
Cn1cc(SCC(=O)NCC2CCCO2)c2ccccc21 (centres undefined),1%,>57
CC(=O)c1ccc(N2CCCCCC2)c(F)c1,-9%,>57
CCn1cc(C(=O)O)c(=O)c2cc(F)c(N3CCNCC3)cc21,-3%[3.58 µM],>57
C=CCn1c(CCNC(=O)C(C)(C)C)nc2ccccc21,-8%,>57
CN(C)CCN1CC(C(=O)O)CC1=O (centres undefined),-4%,>57
O=C(c1ccncc1)N1CCC2(CCCN(Cc3ccccc3)C2)CC1,8%,>57
CC(=O)Nc1cc(CN2CCCCC2)c(O)c2ncccc12,8%[8 µM],>57
CC(C)(C)c1cc(CN2CCCC(O)C2)c(O)c(C(C)(C)C)c1 (centres undefined),u,u
O=C(c1ccccc1)N(Cc1cccs1)C1CCS(=O)(=O)C1 (centres undefined),-6%,>57
CC(C)COC(=O)N(C)c1ccc(C(O)(C(F)(F)F)C(F)(F)F)cc1,-27%,x
COc1ccc(OC)c(NC(=O)CSc2ncccc2C(=O)O)c1,-16%,>57
CC(=O)c1cc2c(cc1NC(=O)Nc1cccc(Cl)c1)OCCO2,-18%,>57
N#Cc1cccc(-c2cc(NCc3cccs3)ncn2)c1,-1%,>57
c1ccc2sc(N3CCN(Cc4nnnn4CC4CCCO4)CC3)nc2c1 (centres undefined),-2%,>57
Cc1cn([C@H]2C[C@H](N=[N+]=[N-])[C@@H](CO)O2)c(=O)[nH]c1=O,9%,x
Cc1noc(C)c1COC(=O)c1cccc(S(=O)(=O)N2CCCCCC2)c1,0%,>57
CCNc1nc(Oc2ccc(=O)[nH]n2)nc(SC)n1,u,>57
Cc1onc(-c2ccccc2)c1C(=O)N1CCN(S(=O)(=O)c2ccc3c(c2)OCCO3)CC1,-9%,>57
COCCNc1nc(SCC(=O)N2CCN(c3ccccc3)CC2)nc2ccccc12,-8%,>57
CC1=C(\C=C/C(C)=C/C=C\C(C)=C\C(=O)O)C(C)(C)CCC1,u,>57&>57&>57&>57&>57&>57

# Rewritten with values under each structure: part of the list above
# Value order – LT uptake inh, SmPrx2 inh
CC(=O)c1cc2c(cc1NC(=O)Nc1cccc(Cl)c1)OCCO2
    -18%, >57
N#Cc1cccc(-c2cc(NCc3cccs3)ncn2)c1
    -1%, >57
c1ccc2sc(N3CCN(Cc4nnnn4CC4CCCO4)CC3)nc2c1 (centres undefined)
    -2%, >57
Cc1cn([C@H]2C[C@H](N=[N+]=[N-])[C@@H](CO)O2)c(=O)[nH]c1=O
    9%, x
Cc1noc(C)c1COC(=O)c1cccc(S(=O)(=O)N2CCCCCC2)c1
    0%, >57
CCNc1nc(Oc2ccc(=O)[nH]n2)nc(SC)n1
    u, >57
Cc1onc(-c2ccccc2)c1C(=O)N1CCN(S(=O)(=O)c2ccc3c(c2)OCCO3)CC1
    -9%, >57

# Remaining list, next part.
SMILES,LT uptake inh,SmPrx2 inh
CC(NC(=O)c1ccccc1NC(=O)c1ccco1)c1ccccc1 (centres undefined),7%,>57
OC1(c2cccnc2)CCN(Cc2nnnn2C2CCCCC2)CC1,0%,>57
O=C(NCc1ccccn1)c1ccc(COc2ccc(Cl)cc2)o1,0%,>57
CCn1c(SCC(=O)Nc2nccs2)nnc1-c1ccc(C)cc1,11%,u
COc1ccccc1C1CC(c2ccc(Cl)cc2)Nc2ncnn21 (centres undefined),-25%,>57
CCCS(=O)(=O)N1CCCC(C(=O)NCCc2ccc(Cl)cc2)C1 (centres undefined),9%,>57
O=C1c2ccccc2C(=O)N1CCCc1nc(-c2ccccn2)no1,-3%,>57
O=C(CCCc1ccccc1)NCCCN1CCOCC1,-11%,x
CN(C)c1ncc2nc(CCc3ccccc3)c(=O)n(CCC#N)c2n1,-13%,>57
Cc1cc2c(ccc3[nH]onc32)n1,-25%,>57
Cc1cccc(NC(=O)CSc2nnc(-c3ccc(S(=O)(=O)N4CCOCC4)cc3)n2C)c1,-16%,>57
COCC(=O)N1CCC[C@@]2(CCN(Cc3ccccc3OC)C2)C1,-3%,>57
CC(C)OC(=O)CSc1nnc(-c2ccccn2)n1C,-4%,>57
CCc1ccc(C2CC(c3ccccc3)n3ncnc3N2)cc1 (centres undefined),-24%,>57
CCc1ccc(CCN2CCCCC2)nc1,-3%[8 µM],>57
CN(C)S(=O)(=O)c1cc(C(=O)NCC2CCCO2)c(Cl)cc1Cl (centres undefined),3%,>57
CN(CC(=O)N1CCCC1)S(=O)(=O)c1cc(Cl)ccc1Cl,x,>57
O=C(CCS(=O)(=O)c1ccc(Br)cc1)N1CCN(Cc2ccccc2)CC1,-29%,>57
OC[C@@H]1O[C@@H](n2cnc3c(Nc4ccccc4)ncnc32)[C@@H](O)[C@H]1O,u,>57
CC1(C)OC(=O)C(=CNc2cccc(O)c2)C(=O)O1,11%,>57
CN(N=O)C(=O)N[C@H]1C(O)OC(CO)[C@@H](O)[C@H]1O (some centres undefined),u,>26
COc1ccc(OC)c(CN(CCCN2CCOCC2)S(=O)(=O)c2ccc(NC(C)=O)cc2)c1,u,>57
O=C(c1cc(-c2ccncc2)nc2ccccc12)N1CCC2(CC1)OCCO2,-7%,>57
Cc1cc(Nc2cc(F)ccc2C)n2ncnc2n1,-3%,>57
CCOC(=O)C1(CC)CC(CSc2nc3ccccc3[nH]2)OC1=O (centres undefined),-1%,>57
CCn1c(Cc2c(C)[nH]c3ccccc23)n[nH]c1=S,7%,>57
COCC(C)n1c(SCC(=O)NC(=O)Nc2ccc3c(c2)OCCO3)nc2ccccc2c1=O (centres undefined),u,>57
O=C1N/C(=C\c2ccccc2)c2ccccc21,20%,>57
COc1ccc(C(=O)N2CCC(C(=O)NCc3ccccn3)CC2)cc1,12%,>57
Cc1occc1C(=O)Nc1ccc(S(=O)(=O)N2CCCC2)cc1,-4%,>57
CC(=O)c1cc(-c2ccc(F)cc2)n(CCC(=O)Nc2cc(C)[nH]n2)c1C,5%,>57
CCC(=O)N(Cc1cc2cc(OC)ccc2[nH]c1=O)c1cc(C)ccc1C,-8%,>57
CC[C@@H]1CN2CC[C@@H]1C[C@H]2[C@@H](O)c1ccnc2ccc(OC)cc12,u,>57
O=C(O)C1CC2(C1)CC(C(=O)O)C2 (centres undefined),-2%[8 µM],>11
O=C(c1cc(-c2cccnc2)nc2ccccc12)N1CCC2(CC1)OCCO2,x,>57
NC(=O)c1nsc(C(=O)N(CC(=O)NCc2ccc3c(c2)OCO3)C2CCCC2)c1N,4%,>57
COc1ccc2cc(CN(CC3COCCO3)S(=O)(=O)c3ccc(Cl)cc3)c(=O)[nH]c2c1 (centres undefined),-5%,u
Nc1n[nH]c(-c2ccc(Br)cc2)c1Cl,12%,>57
COc1ccc(-n2c(O)c(C(C)=NCc3ccco3)c(=O)[nH]c2=O)cc1,-5%,>57
CCOC(=O)C(O)(c1ccc(N)c(OC)c1)C(F)(F)F (centres undefined),x,>57
Cc1cc(C)c2c(n1)nn1c(NCCCN(C)C)cc(C)nc21,-32%,>57
COc1cc(NC(=O)COc2ccc(F)cc2)nc(OC)n1,-16%,x
CCCn1c(SCC(=O)N2CCN(c3ccccc3)CC2)nc2ccccc2c1=O,17%,>57
COc1ccc(Cc2nc3ccc(S(N)(=O)=O)cc3[nH]2)cc1OC,-4%,>57
Cc1c(C)c2ccc(OCc3ccc(C(=O)O)o3)c(C)c2oc1=O,x,>57
Cn1c(=O)[nH]c(=O)c2c1nc(NCc1ccccc1)n2CCCc1ccccc1,u,>57
N#CC1=C(N)Oc2n[nH]c(-c3cccs3)c2C1c1ccsc1 (centres undefined),-11%,>57
N#CCc1ccccc1[N+](=O)[O-],-3%,x
CCNC(=S)NCC,-7%,x
CCCOC(=O)[C@@H]1[C@@H](C(=O)O)[C@H]2CC[C@@H]1O2,0%[8 µM],>57
# Following part.
SMILES,LT uptake inh,SmPrx2 inh
CC(C)(C)NC(=O)Cn1c(SCC(=O)NCc2cccs2)nc2ccccc21,-7%,>57
COc1cc(NC(=O)CN2c3cccc4cccc(c34)S2(=O)=O)cc(OC)c1OC,12%,>57
O=C(Oc1ccccc1)N1CCC2(CC1)CN(c1ncccn1)C2,-8%,>57
CCOc1ccc2nc(NC(=O)CSc3nnnn3C3CCCCC3)sc2c1,u,>57
CCOC(=O)N1CCN(Cc2ccccc2F)CC1,-10%,>57
CCCC(=O)Nc1ccccc1N1CCN(C(=O)C(C)C)CC1,-2%,>57
CC(=O)Nc1ccc(NC(=O)CNS(=O)(=O)c2ccc(C)cc2)cc1,-16%,u
COCCNC(=O)C(c1ccc(C)o1)N(Cc1ccc(F)cc1)C(=O)Cn1nnc2ccccc21 (centres undefined),9%,>57
O=C(c1nc2ccccc2s1)N1CCN(c2ccccn2)CC1,-10%,>57
O=C(Oc1ccc(OC(=O)N2CCCCC2)cc1)c1ccccc1,12%,>57

# The last 5 entries of the part before lead into the next:
SMILES,LT uptake inh,SmPrx2 inh
CCCC(=O)Nc1ccccc1N1CCN(C(=O)C(C)C)CC1,-2%,>57
CC(=O)Nc1ccc(NC(=O)CNS(=O)(=O)c2ccc(C)cc2)cc1,-16%,u
COCCNC(=O)C(c1ccc(C)o1)N(Cc1ccc(F)cc1)C(=O)Cn1nnc2ccccc21 (centres undefined),9%,>57
O=C(c1nc2ccccc2s1)N1CCN(c2ccccn2)CC1,-10%,>57
O=C(Oc1ccc(OC(=O)N2CCCCC2)cc1)c1ccccc1,12%,>57
Cc1ccc(-c2cc(-c3nnc(SCC(=O)N(C)CCC#N)n3N)c3ccccc3n2)cc1,-15%,>57
COC(=O)c1oc2c(c1C)C1(CCC2)SCCS1,-6%,>57
Cc1c(C(=O)Nc2ccc(F)cc2)oc2ccc(S(=O)(=O)N3CCCC3)cc12,u,>57
CN1/C(=C\C(=O)c2cccs2)Sc2ccccc21,u,>57
Cn1cnc2c1c(=O)n(CC(O)CO)c(=O)n2C (centres undefined),3%,>57
O=C(Cn1c(=O)n(Cc2ccc3c(c2)OCO3)c(=O)c2ccccc21)N1CCCc2ccccc21,-6%,>57
COc1ccc(COC(=O)N/N=C2/C[C@@H](O)[C@@H](O)[C@@H]3[C@@H]4C(=O)N(Cc5ccc6c(c5)OCO6)C(=O)[C@H]4CC[C@H]23)cc1,4%[8 µM],x
CC(/C=C/c1ccccc1)NC(N)=O (centres undefined),-4%,>57
COc1ccc(CNc2cc(-c3cccc(NS(C)(=O)=O)c3)ncn2)c(OC)c1,5%,>57
CCCn1c(CCc2ccccc2)nnc1SCC(=O)N1CCOCC1,14%,>57
Cc1cc(C)n2c(SCC#N)nnc2n1,-12%,>57
CN(CCO)C(=O)CCC(=O)Nc1ccc(S(N)(=O)=O)cc1,x,>57
CCCCCCC[n+]1ccc(-c2cc[n+](CCCCCCC)cc2)cc1,-13%,>57
O=C(c1ccccc1F)N1CCN(c2ccccc2)CC1,-3%,>57
CCC(=O)c1ccc(OCC(O)CN2CCOCC2)cc1 (centres undefined),3%,>57
CC/C=C/C/C=C/C/C=C/CCCCCCCC(=O)OCC,u,x
COC(=O)c1c(N)n(-c2ccc(NC(C)=O)cc2)c2nc3ccccc3nc12,u,x
O=C(O)[C@H]1CN[C@H](C(=O)O)C1,-1%,>57
Cc1nnc(SCCn2c(Br)nc3c2c(=O)[nH]c(=O)n3C)s1,-5%,>57
COc1ccc2c(-c3cccnc3)cc(=O)[nH]c2c1,3%,>57
Cc1ccc2[nH]c3c(c2c1)CCC3=O,14%,>57
CCC(C)[C@H](NC(=O)NCc1ccco1)C(=O)O (some centres undefined),0%,>57
O=c1c(CCc2ccccc2)nc2cnc(N3CCOCC3)nc2n1Cc1cccs1,u,>57
O=C(Nc1cccc(Cl)c1N1CCCCC1)c1ccc2c(c1)OCCO2,x,>57
Cc1c(Cl)cccc1-n1ccnc1SCC(=O)O,-1%,>57
Cn1c(O)c(C=NC(CC(N)=O)C(=O)O)c(=O)n(C)c1=O (centres undefined),-19%,>57
O=S(=O)(c1ccc(Oc2ccc(Br)cc2F)nc1)N1CCCCC1,u,>57
COc1ccc(-c2nnc(SCC#N)o2)cc1,-1%,>57
c1ccc(N2CCN(Cc3nc4ccccc4[nH]3)CC2)nc1,-11%,x
O=C(CN1CC(c2ccccc2)CC1=O)NCc1ccc(F)cc1 (centres undefined),-8%,>57
COc1ccc(NC(=O)CSc2nc3ccccc3c(=O)n2CCC(=O)N2CCCCC2)cc1,u,>57
COCCOC(=O)C1=C(C)NC2=C(C(=O)CC(C)(C)C2)C1c1cccnc1 (centres undefined),u,>57
Cc1noc(C)c1C(=O)OCC(=O)c1ccc[nH]1,-11%,>57
OCC1OC(c2ccccc2)C=CC1Oc1cc(Cl)cc(Cl)c1 (centres undefined),-14%[8 µM],x
